From PubChem BioAssay
Menin MLL FP FL: qHTS Assay for Inhibitors Targeting the Menin-MLL Interaction in MLL Related Leukemias: Competition With Fluorescein Labeled MLL-derived Peptide; 290,000 tested, under 10 active; Fluorescence polarization, fluorescein-MLL peptide displacement from menin; FP activity change, % at 61.4 µM; AID 1766, 2009; inconclusive = falling polarisation curve, or a change in total fluorescence; inactive = total fluorescence flat and polarisation flat or rising; no compound was filed as active; the % refers to the polarisation; negative = inhibition;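 note: % of control where 0% means no effect; inhibitors lower the polarisation; unlabelled MLL peptide was the positive control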
gsp ag: qHTS for Agonist of gsp, the Etiologic Mutation Responsible for Fibrous Dysplasia/McCune-Albright Syndrome: qHTS; gsp mutant cells, cAMP HTRF, 30 min; control for the full effect not named in the record; Potency, µM (highest dose often 76.9 µM), inactives show top-dose activation (cAMP increase), hits mostly activators; 340,000 tested, 0.13% active; AID 624287, 2012; active = well fitted activation curve with a large enough effect; inconclusive = small, poorly fitted or top-dose-only effect, or another doubt; inactive = no such curve, though single readings can be large or run the other way; cell line not stated here;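 note: phosphodiesterase inhibitor Ro 20-1724 added with compounds to block cAMP breakdown; potency is the fitted concentration of half-maximal effect; nearly all actives have a fitted effect of over 60% in size; about a fifth of the inactives were tested at one dose only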
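Cells in DMEM/10% FBS with G418 were pretreated with compounds in DMSO plus […] (300 uM stock) for 30 min at 37C. cAMP was measured by HTRF (cAMP-d2 plus anti-cAMP antibody-K) after 30 min at room temperature.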
Sfp inh: qHTS Assay for Inhibitors of Bacillus subtilis Sfp phosphopantetheinyl transferase (PPTase); Biochemical Sfp PPTase activity, qHTS; 4'-phosphopantetheinyl transferase ffp (Bacillus subtilis), Q9F4F7; 310,000 tested, 3.5% active; Potency, µM, without a hit: max response, negative = inhibition, actives largely listed as inhibitors; active = well fitted inhibition curve with a large enough effect; inconclusive = small, poorly fitted or top-dose-only effect, or another doubt; inactive = no such curve, though single readings can be large or run the other way;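 note: the enzyme is Sfp with the accession as filed and its product quenches rhodamine fluorescence; potency is the fitted concentration of half-maximal effect; 0% = enzyme reaction without inhibitor and -100% = no enzyme wells; top concentration of the series not given in the record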
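Fluorescence-quenching assay with 15 nM Sfp, 5 uM rhodamine-CoA and 12.5 uM BHQ-2-labelled ybbR peptide in pH 7.6 Hepes/MgCl2 buffer. Enzyme was pre-incubated with compound for 15 min at room temperature. Rate was taken from the 30-min fluorescence change (525/598 nm).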
TRPV1 PAM: HTS Assay for Compounds that Act as Potentiators of the Vanilloid Receptor 1. 320,000 tested, 0.02% active. potentiation, % at 8.33 µM. AID 540277, 2011. Transient receptor potential cation channel subfamily V member 1 (Homo sapiens), Q8NER1. TRPV1-expressing cells, Fluo-8 calcium influx, capsaicin EC20 potentiation; host cell line not named in the record; control for the full effect not named in the record; active means potentiation above 80%; inconclusive means 30% to 80%; inactive means below 30%; note: 0% is about no effect
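Cells expressing TRPV1 were dye-loaded with Fluo-8 and read kinetically: 10 s baseline, 3 min after compound (agonist portion), then 2 min after EC20 capsaicin (allosteric enhancer portion). Calcium-bound dye fluorescence at 480/520 nm.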
ClpP mod: qHTS Assay for Activators of ClpP | purified B. subtilis ClpP, FRET peptide cleavage, 20 min | Potency, µM (highest dose often 57.5 µM), for inactives: at the top dose activity change, negative = active | 340,000 tested, 1.9% active; active = well fitted falling curve with a large enough effect; inconclusive = small, poorly fitted or top-dose-only effect; inactive = no such curve, though single readings can be large or run the other way; note: potency is the fitted concentration of half-maximal effect; the source files actives as falling curves though it sought activators and does not explain the sign; nearly all actives have a fitted effect of over 65% in size; many hits overshoot -100%
Target sequence (P80244 whole entry, looked up): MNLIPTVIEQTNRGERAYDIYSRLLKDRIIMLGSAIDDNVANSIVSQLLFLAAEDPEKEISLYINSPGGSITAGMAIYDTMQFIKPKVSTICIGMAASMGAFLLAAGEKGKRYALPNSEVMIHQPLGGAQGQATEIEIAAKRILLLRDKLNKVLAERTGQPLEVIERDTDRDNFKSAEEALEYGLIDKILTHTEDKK
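FRET quenching reversal measured ClpP activation: 10 microg/mL B. subtilis ClpP at pH 8 with the FRET-FV decapeptide, read at 430 nm after 320 nm excitation. The 20-min minus 0-min signal was scaled between DMSO/no-enzyme wells and ADEP (5.8 microM final).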
D2 potentiator: Beta-Arrestin HTS for Positive Allosteric Modulators of the Human D2 Dopamine Receptor: Potentiators; potentiation, % (concentration not given with the values); D(2) dopamine receptor (Homo sapiens), P14416; DiscoveRx D2 beta-arrestin cells, luminescence, 90 min; 100% = 57 uM dopamine signal; 360,000 tested, 0.23% active; AID 624464, 2012; active = potentiation of 50% or more; inconclusive = 30% to 50%; inactive = 30% or less;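 note: compound concentration not given in the record; tested on top of an EC20 dose of dopamine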
Target sequence (P14416 whole entry, looked up): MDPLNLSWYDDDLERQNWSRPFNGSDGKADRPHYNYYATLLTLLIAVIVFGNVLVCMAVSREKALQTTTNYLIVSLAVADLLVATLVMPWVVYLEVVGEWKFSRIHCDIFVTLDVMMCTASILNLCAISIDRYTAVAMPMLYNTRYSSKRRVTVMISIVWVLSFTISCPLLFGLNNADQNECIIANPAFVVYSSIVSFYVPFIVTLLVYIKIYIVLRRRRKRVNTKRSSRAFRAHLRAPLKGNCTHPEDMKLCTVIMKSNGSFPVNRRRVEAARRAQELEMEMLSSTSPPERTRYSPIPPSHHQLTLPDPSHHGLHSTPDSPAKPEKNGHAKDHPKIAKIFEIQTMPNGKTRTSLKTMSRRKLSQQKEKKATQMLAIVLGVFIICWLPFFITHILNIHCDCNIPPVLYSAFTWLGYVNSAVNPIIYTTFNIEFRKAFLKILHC
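PathHunter beta-arrestin assay in DiscoveRx D2 cells. Compounds were added with an EC20 of dopamine (50 nM final) for 90 min at 37 deg C. Luminescence was read 1 h after detection reagent, with 57 uM dopamine as the EC100 control.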
gsp antag: qHTS for Antagonists of gsp, the Etiologic Mutation Responsible for Fibrous Dysplasia/McCune-Albright Syndrome: qHTS | gsp-mutant cells, cAMP HTRF, 30 min; control for the full effect not named in the record | 340,000 tested, 0.4% active | Potency, µM (top dose mostly 76.9 µM), without a hit: at the highest dose activity change, negative = inhibition, usual class: inhibitors | AID 624288, 2012; active = falling curve of any shape with a large fitted effect; inconclusive = falling curve, mostly with a smaller effect; inactive = flat or rising curve; cell line not stated here;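 note: intracellular cAMP measured with PDE inhibitor Ro 20-1724 present during compound exposure; potency is the fitted concentration of half-maximal effect; % is set by controls: 0 for no effect and ±100 for the full control effect; nearly all actives have a fitted effect of over 65% in size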
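HTRF cAMP measurement after 30 min RT detection following 30 min, 37C compound treatment alongside […] (added as 300 uM solution) in G418-selected cells seeded at 2000/well and grown 16–24 h.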
* = called active by the depositor; & = joins results of further samples; [ ] = dose if it differs, or a comment.

How did COc1ccc(-c2cc(C(=O)Oc3ccc([N+](=O)[O-])cc3)c3ccccc3n2)cc1 do in these assays?
Menin MLL FP FL: 4.0; gsp ag: 38%; Sfp inh: -7%; TRPV1 PAM: 6; ClpP mod: 28µM*; D2 potentiator: -15; gsp antag: -33%

How did CCC(C)c1ccccc1NC(=O)c1cccc(-n2cnnn2)c1 (stereo unspecified) do in these assays?
gsp ag: 18%; D2 potentiator: 4; gsp antag: -2%

Results for Cc1ccc(-c2cc3ccccc3nc2N2CCCC2)cc1 ?
Menin MLL FP FL: -0.5; gsp ag: -26%; Sfp inh: -4%; TRPV1 PAM: 5; ClpP mod: inconclusive; D2 potentiator: -17; gsp antag: -12%

Results for CCOCCCNC(=O)Cc1ccc(-n2c(CC)nc3cccnc32)cc1 ?
Menin MLL FP FL: inconclusive; gsp ag: 0%; Sfp inh: 7%; TRPV1 PAM: inconclusive; ClpP mod: -15%; D2 potentiator: 0; gsp antag: 0%

Results for O=C(COC(=O)C12CC3CC(CC(Cl)(C3)C1)C2)N1CCCCC1 ?
gsp ag: -2%; D2 potentiator: -8; gsp antag: -9%

Results for O=C(c1cc(-c2ccc(Cl)cc2Cl)on1)N1CCCC1 ?
Menin MLL FP FL: 7.4; gsp ag: 0%[15.4 µM]; Sfp inh: 1%; TRPV1 PAM: 9; D2 potentiator: 3; gsp antag: -21%

Results for C=CCNC(=O)Nc1ccc(F)cc1F ?
Menin MLL FP FL: 0.7; gsp ag: -6%[15.4 µM]; Sfp inh: 9%; TRPV1 PAM: 2; D2 potentiator: 0; gsp antag: -14%

What do the screens show for `CC1(C)CC(=O)C2=C(C1)N(CCN1CCOCC1)C1=C(C(=O)CC(C)(C)C1)C2c1ccc(Cl)cc1`?
Menin MLL FP FL: 0.6; gsp ag: -4%; Sfp inh: 16%; TRPV1 PAM: -2; ClpP mod: -4.0%; D2 potentiator: 4; gsp antag: -17%

What do the screens show for `CC1CCCC(NC(=O)c2n[nH]c(=O)c3ccccc23)C1C` (stereo unspecified)?
Menin MLL FP FL: 2.2; gsp ag: -13%; Sfp inh: 22%; TRPV1 PAM: 0; ClpP mod: 1.1%; D2 potentiator: -15; gsp antag: -3%

How did Cc1nn2c(=O)cc(CSc3ccccc3NC(=O)c3ccccc3)nc2s1 do in these assays?
Menin MLL FP FL: -0.7; gsp ag: -53%[inhibitor]; Sfp inh: 8%; TRPV1 PAM: -4; ClpP mod: -2.9%; D2 potentiator: -12; gsp antag: -7%

How did N#Cc1ccc(S(=O)(=O)N2CCN(C(=O)[C@@H]3CCCN3C(=O)c3cccs3)CC2)cc1 do in these assays?
gsp ag: -17%; TRPV1 PAM: -11; ClpP mod: -1.3%; D2 potentiator: -13; gsp antag: 10%

Results for CCOc1ccc2[nH]c3c(NCCOC)ncnc3c2c1 ?
Menin MLL FP FL: 2.2; gsp ag: inconclusive; Sfp inh: -4%; TRPV1 PAM: -5; ClpP mod: 3.7%; D2 potentiator: 12; gsp antag: -15%

How did O=C(O)CC12CC3CC(C1)CC(n1ncc(NCc4ccccc4)c(Cl)c1=O)(C3)C2 do in these assays?
Menin MLL FP FL: -0.8; gsp ag: 7%[15.4 µM]; Sfp inh: 28%; TRPV1 PAM: -3; D2 potentiator: -3; gsp antag: -2%

What do the screens show for `COc1ccc(C)cc1NC(=O)Cn1cnc2sc(C)c(S(=O)(=O)N3CCOCC3)c2c1=O`?
Menin MLL FP FL: 1.3; gsp ag: inconclusive; Sfp inh: 9%; TRPV1 PAM: 7; ClpP mod: -2.4%; D2 potentiator: -9; gsp antag: 0%

How did CCC(CC)c1nnc(NC(=O)CCN2C(=O)c3ccccc3C2=O)s1 do in these assays?
Menin MLL FP FL: 4.9; gsp ag: 7%; Sfp inh: 5%; TRPV1 PAM: 11; ClpP mod: -1.5%; D2 potentiator: 24; gsp antag: -4%

What do the screens show for `CCC(C)NC(=O)C1CCC(CNS(=O)(=O)c2cccc3nsnc23)CC1` (stereo unspecified)?
gsp ag: -57%[inhibitor]; Sfp inh: 7%; TRPV1 PAM: 11; ClpP mod: -2.0%&-1.5%; D2 potentiator: -7; gsp antag: -6%

Results for CC(=O)N1CCN(c2ccc(S(=O)(=O)N3CCCCC3)cc2[N+](=O)[O-])CC1 ?
gsp ag: 8%[15.4 µM]; ClpP mod: -0.5%; D2 potentiator: 2; gsp antag: 6%

Results for CCn1c(SCC(=O)NC2CCCC2)nc2c(c1=O)SCC2 ?
gsp ag: -40%[inhibitor]; ClpP mod: -2.5%; D2 potentiator: -2

Results for COc1ccc(S(=O)(=O)NC(C)C(=O)NCc2ccccn2)cc1Cl (stereo unspecified) ?
Menin MLL FP FL: -1.5; gsp ag: 2%[15.4 µM]; Sfp inh: -12%; TRPV1 PAM: 1; D2 potentiator: 2; gsp antag: -4%

Results for COCCCNC(=O)Cc1ccc(S(=O)(=O)N2CCOCC2)s1 ?
gsp ag: -11%; TRPV1 PAM: -6; ClpP mod: -0.5%; D2 potentiator: 23; gsp antag: -3%

How did CCCC1NC(=O)c2cccnc2-n2c1nc1ccc(Cl)cc1c2=O (stereo unspecified) do in these assays?
gsp ag: -4%; ClpP mod: -3.8%; D2 potentiator: 5

What do the screens show for `O=C(Cc1ccc(S(=O)(=O)N2CCOCC2)s1)Nc1ccccc1Br`?
Menin MLL FP FL: -2.9; gsp ag: -1%; Sfp inh: -4%; TRPV1 PAM: 2; ClpP mod: -0.5%; D2 potentiator: -12; gsp antag: -2%

What do the screens show for `Cc1cc(=O)oc2ccc(OCc3ccccc3)cc12`?
Menin MLL FP FL: 0.0; gsp ag: 10%; Sfp inh: -7%; TRPV1 PAM: -13; ClpP mod: 3.9%; D2 potentiator: -1; gsp antag: 0%

How did COc1ccccc1C(=O)Oc1cc(N)n(S(=O)(=O)c2ccc(C)cc2)n1 do in these assays?
Menin MLL FP FL: -2.7; gsp ag: -18%; Sfp inh: -12%; TRPV1 PAM: 9; ClpP mod: -5.3%; D2 potentiator: -7; gsp antag: 2%

Results for COc1ccc(/C=N/Nc2cc(C)nc(N3CCOCC3)n2)cc1OC ?
Menin MLL FP FL: -6.4; gsp ag: 19%; Sfp inh: 6%; TRPV1 PAM: 8; D2 potentiator: -5; gsp antag: -3%

Results for CCOC(=O)C1=C(O)/C(=C/c2cc(OC)c(O)c(OC)c2)SC1=Nc1ccc(OC)cc1 ?
Menin MLL FP FL: inconclusive; gsp ag: 0%; Sfp inh: -24%; TRPV1 PAM: -1; ClpP mod: 0.4%; D2 potentiator: -1; gsp antag: 11%

What do the screens show for `CCOc1cc(/C=C/C(=O)NCCc2ccc(S(N)(=O)=O)cc2)ccc1OCC(C)C`?
Menin MLL FP FL: -1.5; gsp ag: 0%; Sfp inh: 28%; TRPV1 PAM: -10; ClpP mod: 1.9%; D2 potentiator: -7; gsp antag: -10%

Results for O=C(O)C1CCC(CNCc2ccncc2)CC1 (stereo unspecified) ?
Menin MLL FP FL: -1.1; gsp ag: inconclusive; Sfp inh: 2%; TRPV1 PAM: 5; D2 potentiator: 2; gsp antag: 10%

What do the screens show for `COc1cccc(C(=O)NNC(=O)c2ccc3ccccc3c2)c1`?
gsp ag: -5%[15.4 µM]; ClpP mod: 1.2%; D2 potentiator: -12; gsp antag: 6%

What do the screens show for `CC1CCCC(NC(=O)c2cc(S(=O)(=O)N3CCCCC3)ccc2Cl)C1C` (stereo unspecified)?
gsp ag: inconclusive; TRPV1 PAM: -25; ClpP mod: -0.4%; D2 potentiator: -3; gsp antag: 5%

Results for Cc1cccc(NC2SC(=O)N(CC(=O)O)C2=O)c1 (stereo unspecified) ?
Menin MLL FP FL: -0.1; gsp ag: -40%[inhibitor]; Sfp inh: 16%; TRPV1 PAM: -1; ClpP mod: -0.1%; D2 potentiator: -7; gsp antag: 10%

How did Cc1ccc2cccc(N)c2n1 do in these assays?
Menin MLL FP FL: -3.3; gsp ag: 29%[15.4 µM]; Sfp inh: 6%; TRPV1 PAM: -7; D2 potentiator: -9; gsp antag: -19%

Results for COc1cccc(CN(C(=O)CN2C(=O)c3ccccc3S2(=O)=O)C(C(=O)NCC2CCCO2)c2ccco2)c1 (stereo unspecified) ?
Menin MLL FP FL: -0.9; gsp ag: -1%; Sfp inh: 16%; TRPV1 PAM: -6; D2 potentiator: 6; gsp antag: -8%

How did CCN(CC)S(=O)(=O)c1cc(C(=O)Nc2ccccn2)ccc1C do in these assays?
Menin MLL FP FL: 0.6; gsp ag: -14%; Sfp inh: 4%; TRPV1 PAM: -16; ClpP mod: -1.7%; D2 potentiator: -6; gsp antag: 4%

What do the screens show for `COc1ccccc1N1CCN(CCCCNC(=O)c2ccc3ccccc3c2)CC1`?
Menin MLL FP FL: 7.9; Sfp inh: 16%; TRPV1 PAM: 16; ClpP mod: -2.0%; gsp antag: -7%

Of the compounds above, 2 contain a nitro group on carbon.
How did COc1ccc(-c2cc(C(=O)Oc3ccc([N+](=O)[O-])cc3)c3ccccc3n2)cc1 do in these assays?
Menin MLL FP FL: 4.0; gsp ag: 38%; Sfp inh: -7%; TRPV1 PAM: 6; ClpP mod: 28µM*; D2 potentiator: -15; gsp antag: -33%

Results for CC(=O)N1CCN(c2ccc(S(=O)(=O)N3CCCCC3)cc2[N+](=O)[O-])CC1 ?
gsp ag: 8%[15.4 µM]; ClpP mod: -0.5%; D2 potentiator: 2; gsp antag: 6%
